# YopH inh – YopH (Yersinia) phosphatase inhibition; fluorescence Ex485/Em525; inhibition, %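 (about 10 µM by stock and volumes)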; 0.16% of 140,000 active;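 active means inhibition of 50% or more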;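 further: controls were vehicle for no effect and minimum signal wells for full effect; inactives centre near -20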
# Mtb growth – M. tuberculosis H37Rv growth inhibitors, H37Rv strain (AID 1626). one-dose inhibition, % at 10 µM; IC50 in µM for titrated hits. 0.95% of 220,000 active. M. tuberculosis H37Rv growth inhibition; higher % means a stronger effect;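 active means confirmed in a dose series; inconclusive means inhibition above 80% but not taken into the dose series; inactive means below 80% or under 30% at every dose of the series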;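 further: bacteria incubated seven days before Alamar blue readout; 0% = bacteria only wells and 100% = bacteria with antibiotic wells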
# Arbovirus inh – antivirals against arbovirus infection | arbovirus infection cell-based antiviral screen | inhibition, % at 10 µM | 0.37% of 200,000 active;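 active means inhibition from about 30%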;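 further: bluetongue infection of BSR cells; cell survival read as ATP light after 72 h; 0% = infected wells without compound and 100% = uninfected wells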
# RecA intein inh – Mtb RecA intein splicing inhibition | inhibition, %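 (about 9 µM by stock and volumes)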 | cell-free RecA intein splicing, fluorescence | 0.75% of 290,000 active; in the data active means inhibition above about 30%; inconclusive means no clear call, values can overlap the other calls;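 further: 0% = vehicle wells and 100% = reference inhibitor control wells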
# Target sequence (P9WHJ3 whole entry, looked up): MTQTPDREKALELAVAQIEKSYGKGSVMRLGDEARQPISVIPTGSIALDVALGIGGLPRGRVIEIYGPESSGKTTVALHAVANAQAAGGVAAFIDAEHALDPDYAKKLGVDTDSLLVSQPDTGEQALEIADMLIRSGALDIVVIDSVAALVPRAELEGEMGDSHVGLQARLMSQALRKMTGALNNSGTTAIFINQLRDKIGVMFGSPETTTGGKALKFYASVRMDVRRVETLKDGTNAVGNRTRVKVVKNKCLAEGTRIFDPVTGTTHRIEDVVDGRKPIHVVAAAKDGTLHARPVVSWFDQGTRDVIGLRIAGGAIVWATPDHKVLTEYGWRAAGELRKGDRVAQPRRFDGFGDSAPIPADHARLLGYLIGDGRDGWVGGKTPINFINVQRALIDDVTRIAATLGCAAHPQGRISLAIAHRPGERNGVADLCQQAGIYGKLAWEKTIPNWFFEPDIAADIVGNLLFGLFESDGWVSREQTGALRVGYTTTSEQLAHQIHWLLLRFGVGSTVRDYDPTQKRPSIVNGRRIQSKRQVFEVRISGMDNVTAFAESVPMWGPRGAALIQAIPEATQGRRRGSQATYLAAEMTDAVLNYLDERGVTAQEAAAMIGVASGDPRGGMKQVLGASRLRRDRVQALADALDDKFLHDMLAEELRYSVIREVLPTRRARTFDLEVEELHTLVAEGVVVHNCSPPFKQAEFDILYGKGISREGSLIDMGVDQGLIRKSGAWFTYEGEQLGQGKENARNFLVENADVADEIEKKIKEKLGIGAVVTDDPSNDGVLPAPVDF
# Mtb bLac sens – beta-lactam sensitization of Mtb H37Rv; M. tuberculosis H37Rv growth with meropenem, percent inhibition; hits of this screen are not shown here; inhibition, % at 25 µM; 0.27% of 330,000 active;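 active means about 74% or more and at least 40 points above the plate without the antibiotic, then above 30% in a dose series; inconclusive means first-round hits that could not be retested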;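 further: growth measured after seven days incubation then overnight dye step; 0% = bacteria only wells and 100% = bacteria with antibiotic; twin plates without the antibiotic show which effects depend on it; some results filed as inactive read as strong as hits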
# Arbovirus inh repeat – second read-out of Arbovirus inh, no call of its own (marks repeat the call); inhibition, %; measured here: 10K subset replicate screen; many hits read low in the repeat;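 first of two repeat runs on a subset; 0% = infected and 100% = uninfected wells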
# * marks the source's active call; other numbers are inactive results; i = inactive; ? = inconclusive; / = no result given. An excerpt; count on the stated rates, not on these rows.
SMILES,YopH inh,Mtb growth,Arbovirus inh,RecA intein inh,Mtb bLac sens,others
COc1ccnc(N2CCN(c3cccc(C(F)(F)F)c3)CC2)c1C#N,-37,9%,1,-1.8,4,
O=C(CP(=O)(c1ccccc1)c1ccccc1)Nn1cnnc1,10,-5%,9,-0.7,6,
CCN(CC)c1ccc(S(=O)(=O)N2CCOCC2)cc1NC(=O)CN1CCN(Cc2ccccc2)CC1,/,5%,/,-1.6,2,
CCOc1ccc(N(C(C)C(=O)NN=C2CCCCCCC2)S(C)(=O)=O)cc1 (stereo not drawn),-31,-5%,-2,-1.0,2,
COC(=O)c1cc(Cl)c(NC(=O)c2cc(OC)c(OC)c(OC)c2)cc1OC,-40,0%,-3,0.8,-1,
COc1cc(Cl)c(C)cc1NC(=O)CSc1nnc(CCC(=O)O)c(=O)[nH]1,/,26%,11,-2.4,-2,
O=C(c1cccs1)N(C(=O)c1cccs1)c1ccccn1,-48,-6%,9,-1.9,1,Arbovirus inh repeat=2
COc1cccc(N2CCN(C(=O)C3CCCN(S(=O)(=O)c4ccc5c(c4)oc(=O)n5C)C3)CC2)c1 (stereo not drawn),/,/,/,2.4,1,
Cn1c(=NC(=O)C(C)(C)C)sc2cccc(F)c21,/,0%,/,0.8,26,
CSc1sc(C(=O)NC(=O)NCc2cccnc2)c(C)c1-c1ccon1,/,-4%,/,/,-3,
CN1CC(C(=O)c2ccc(Cl)cc2)C(c2ccccc2)C1 (stereo not drawn),/,/,/,0.9,-2,
NC(CO)C12CC3CC(CC(C3)C1)C2 (stereo not drawn),/,-4%,/,-0.5,-1,
O=C(NCCN1CCCCC1)c1cc(OCC(F)(F)F)ccc1OCC(F)(F)F,-22,6%,8,0.5,-5,
Cc1ccc(NC(=S)N2CCCC(c3nc4ccccc4[nH]3)C2)cc1 (stereo not drawn),/,12%,6,2.6,5,
Cc1cc(=O)[nH]c(N/N=C/c2ccc(F)cc2)n1,/,/,/,2.7,5,
CC1Sc2ccc(S(=O)(=O)N3CCN(c4ccccc4)CC3)cc2NC1=O (stereo not drawn),/,/,/,1.3,9,
COc1ccc(C2C3=C(CC(C)(C)CC3=O)N(C)C3=C2C(=O)CC(C)(C)C3)cc1,/,-14%,8,-73,-10,
COc1ccccc1CCNC(=O)C(=O)c1cn(CC(=O)N2CCOCC2)c2ccccc12,/,/,/,-0.5,5,
CCOC(=O)N1CCN(C(=O)c2cn(C)c3ccc(S(=O)(=O)N4CCOCC4)cc3c2=O)CC1,/,/,/,-1.2,0,
CCCCn1c(=O)n(C)c(=O)c2c(C(F)(F)F)cc(-c3ccncc3)nc21,-12,-3%,-2,4.0,-4,
Cc1nn(-c2ccc(F)cc2)c(Cl)c1/C=C1\C(=O)Nc2ccccc21,-4,10%,-4,-2.2,24,
NS(=O)(=O)c1cnccc1Nc1ccc(Cl)c(Cl)c1,-22,1%,7,2.7,14,
Cc1cc(C)c(S(=O)(=O)N2CCCCC2CCNC(=O)C(=O)NC2CC2)c(C)c1 (stereo not drawn),/,/,/,0.8,-14,
N=c1c(C(=O)NCC2CCCO2)cc2c(=O)n3ccccc3nc2n1Cc1ccccc1 (stereo not drawn),/,/,/,i,2,
O=C(O)C1CC(O)CN1c1nc(Cl)ccc1[N+](=O)[O-] (stereo not drawn),/,0%,2,1.2,-5,

# Further records.
SMILES,YopH inh,Mtb growth,Arbovirus inh,RecA intein inh,Mtb bLac sens,others
COC(=O)CN1C(=O)[C@H]2[C@@H](/C=C/c3ccccc3)N3C(=O)CN(Cc4ccccc4)C(=O)[C@@]3(Cc3ccccc3)[C@H]2C1=O,/,/,/,2.3,-8,
CCOc1ncccc1C(=O)OCC(=O)c1ccc(C)c(C)c1,/,25%,6,-1.2,57,
CCOC(=O)NC1=NCC(C)S1 (stereo not drawn),/,-7%,/,2.7,-5,
CC(=O)Nc1ccc2nc(NC(=O)CS(=O)(=O)c3ccccc3)sc2c1,/,/,/,-1.5,0,
Cc1nnc(SCC(=O)NC(C)(C)C)n1NCc1ccc(Cl)cc1,/,3%,-1,-4.3,1,
Cc1ccc(CNC(=O)C2CCCN(c3cnccn3)C2)cc1 (stereo not drawn),/,/,/,-0.2,-4,
COc1ccc(/C=C/c2c(-c3ccc(OC)cc3)oc3ccccc23)cc1,/,/,/,-2.7,-9,
COc1ncccc1-c1nnn(-c2ccc(Cl)nc2)n1,/,-14%,-3,1.7,-7,
O=C(O)c1ccccc1S(=O)(=O)c1ccccc1CO,-33,-2%,0,-0.1,2,
COC(=O)c1cc(C(=O)Nc2ccc(Cl)cn2)cc([N+](=O)[O-])c1,/,5%,4,-0.6,7,
Cc1ccc(S(=O)(=O)NC(=O)N(CCC#N)Cc2ccccc2)cc1,/,/,/,1.5,-10,
O=C(NNC(=O)C1CC(=O)N(c2ccc3c(c2)OCCO3)C1)c1ccc(F)cc1 (stereo not drawn),/,/,/,0.2,-8,
Cc1ccnc(SCC(=O)c2ccc([N+](=O)[O-])cc2)n1,2,3%,-3,2.7,5,
CCCCN(C)CC(O)Cn1cc(/C=C/C(=O)c2ccc(C)cc2)c2ccccc21 (stereo not drawn),/,/,/,1.4,?,
CN(C)CCNC(=O)C(C(=O)c1ccc(F)cc1)n1ccccc1=O (stereo not drawn),-6,0%,-4,-3.9,4,
CCOC(=O)c1[nH]c(C)c(C(=O)c2cc(F)ccc2F)c1C,14,/,-14,-2.2,4,
CC(=O)N1CCc2cc(S(=O)(=O)N3CCCCCC3)ccc21,/,/,/,2.2,0,
COc1ccc(COC(=O)C2CCN(S(=O)(=O)c3ccc(Cl)cc3)CC2)cc1,/,/,/,0.2,9,
COc1ccc(S(=O)(=O)N2CCN(CCc3ccccc3)CC2)cc1,/,/,/,-1.3,-7,
Cc1cccc(CCNC(=O)c2cc(S(=O)(=O)N3CCCC3)cn2C)c1,/,/,/,0.3,0,
c1ccc(Cn2cc(CN3CCCO3)c(-c3ccc4c(c3)OCO4)n2)cc1,/,6%,-6,0.3,13,
CC(C)(C)c1ccc(S(=O)(=O)N2CCN(CCC#N)CC2)cc1,-37,-2%,7,-0.5,-2,Arbovirus inh repeat=2
O=C(O)CC/C(=N/Nc1ccc([N+](=O)[O-])cc1)C(=O)O,/,?,/,1.3,97,
CC(C)NC(=O)CN1CCC(O)(c2ccccc2)CC1,-27,-10%,1,-2.8,-4,
CCOc1cc2[nH]c(=O)n(CCCC(=O)N(C)Cc3ccccc3)c(=O)c2cc1OCC,/,-6%,-2,0.3,-8,

# Additional compounds
SMILES,YopH inh,Mtb growth,Arbovirus inh,RecA intein inh,Mtb bLac sens,others
CSc1ccc(CCNC(=O)C2CCCN(c3ncnc4c3nc3n4CCCCC3)C2)cc1 (stereo not drawn),/,/,/,2.1,99,
COc1cccc(NC(=O)CN2C(=O)C(c3ccc(C)cc3)=NC23CCCCCC3)c1,-7,/,2,-0.9,2,
O=C1/C(=C/c2ccc([N+](=O)[O-])cc2)CCc2ccccc21,/,8%,/,20,-2,
COc1ccccc1CN1CC(C(=O)NCc2cccc(C)n2)CCC1=O (stereo not drawn),/,/,/,2.3,-2,
COc1ccc(OC)c(CCNC(=O)CCC(=O)N2CCOc3ccc(C)cc32)c1,/,/,/,1.6,-3,
C/C(=N\NC(=O)C1=NNC(=O)C1C)c1cccs1 (stereo not drawn),/,-8%,-7,-4.8,6,
Cc1ccc(NC(=O)Nc2ccccc2C(N)=O)cc1,/,-11%,/,-1.4,-3,
O=C(c1cccs1)N1CCC2(O)CCCCC2C1c1ccc(F)cc1 (stereo not drawn),-21,7%,2,-0.9,-4,
CCN(CC)c1ccc(NC(=O)c2cnc3ccccn3c2=O)c(C)c1,-20,13%,2,/,60,
OC(COc1ccc(Cl)c2ccccc12)CN1CCN(c2ccccn2)CC1 (stereo not drawn),-27,11%,-32,6.4,-5,Arbovirus inh repeat=-14
Cc1cc(C)n(CCN(C)c2nc3nonc3nc2NC2CC2)n1,/,8%,8,0.0,3,
CCOC(=O)c1c(NC(=O)c2ccoc2C)sc(C)c1C,-1,-3%,1,0.1,28,
CCOc1cccc(OCCOCCN2CCCC2)c1,-36,-4%,5,-0.8,-13,
CCCC(C)NC(=O)CN1C(=O)c2cccc3cccc1c23 (stereo not drawn),/,/,/,-18,-3,
CC(C)c1ccccc1NC(=O)CNCCOc1ccccc1F,/,/,/,2.6,-1,
N#Cc1nc(-c2ccc(OCc3ccccc3)cc2)oc1NCCCn1ccnc1,-52,5%,-4,-0.7,94,
Cc1c(NC(=O)OCCSc2nc(N(C)C)nc(N(C)C)n2)sc(=S)n1C,-9,-2%,14,-0.8,5,Arbovirus inh repeat=0
CCN(Cc1ccccc1)C1CCN(Cc2ccccc2)CC1,/,/,/,2.3,8,
COC(=O)C1CCN(C(=O)CSc2nnc(-c3ccncc3)o2)CC1,-16,-13%,16,-1.7,-3,Arbovirus inh repeat=-1

# No new results follow: an excerpt of the list.
SMILES,YopH inh,Mtb growth,Arbovirus inh,RecA intein inh,Mtb bLac sens,others
COc1ccc(S(=O)(=O)N2CCN(CCc3ccccc3)CC2)cc1,/,/,/,-1.3,-7,
Cc1cccc(CCNC(=O)c2cc(S(=O)(=O)N3CCCC3)cn2C)c1,/,/,/,0.3,0,
c1ccc(Cn2cc(CN3CCCO3)c(-c3ccc4c(c3)OCO4)n2)cc1,/,6%,-6,0.3,13,
CC(C)(C)c1ccc(S(=O)(=O)N2CCN(CCC#N)CC2)cc1,-37,-2%,7,-0.5,-2,Arbovirus inh repeat=2
O=C(O)CC/C(=N/Nc1ccc([N+](=O)[O-])cc1)C(=O)O,/,?,/,1.3,97,
CC(C)NC(=O)CN1CCC(O)(c2ccccc2)CC1,-27,-10%,1,-2.8,-4,
CCOc1cc2[nH]c(=O)n(CCCC(=O)N(C)Cc3ccccc3)c(=O)c2cc1OCC,/,-6%,-2,0.3,-8,
CSc1ccc(CCNC(=O)C2CCCN(c3ncnc4c3nc3n4CCCCC3)C2)cc1 (stereo not drawn),/,/,/,2.1,99,
COc1cccc(NC(=O)CN2C(=O)C(c3ccc(C)cc3)=NC23CCCCCC3)c1,-7,/,2,-0.9,2,
O=C1/C(=C/c2ccc([N+](=O)[O-])cc2)CCc2ccccc21,/,8%,/,20,-2,
COc1ccccc1CN1CC(C(=O)NCc2cccc(C)n2)CCC1=O (stereo not drawn),/,/,/,2.3,-2,
COc1ccc(OC)c(CCNC(=O)CCC(=O)N2CCOc3ccc(C)cc32)c1,/,/,/,1.6,-3,
C/C(=N\NC(=O)C1=NNC(=O)C1C)c1cccs1 (stereo not drawn),/,-8%,-7,-4.8,6,
Cc1ccc(NC(=O)Nc2ccccc2C(N)=O)cc1,/,-11%,/,-1.4,-3,
O=C(c1cccs1)N1CCC2(O)CCCCC2C1c1ccc(F)cc1 (stereo not drawn),-21,7%,2,-0.9,-4,
CCN(CC)c1ccc(NC(=O)c2cnc3ccccn3c2=O)c(C)c1,-20,13%,2,/,60,
OC(COc1ccc(Cl)c2ccccc12)CN1CCN(c2ccccn2)CC1 (stereo not drawn),-27,11%,-32,6.4,-5,Arbovirus inh repeat=-14
Cc1cc(C)n(CCN(C)c2nc3nonc3nc2NC2CC2)n1,/,8%,8,0.0,3,
CCOC(=O)c1c(NC(=O)c2ccoc2C)sc(C)c1C,-1,-3%,1,0.1,28,
CCOc1cccc(OCCOCCN2CCCC2)c1,-36,-4%,5,-0.8,-13,
CCCC(C)NC(=O)CN1C(=O)c2cccc3cccc1c23 (stereo not drawn),/,/,/,-18,-3,
CC(C)c1ccccc1NC(=O)CNCCOc1ccccc1F,/,/,/,2.6,-1,
N#Cc1nc(-c2ccc(OCc3ccccc3)cc2)oc1NCCCn1ccnc1,-52,5%,-4,-0.7,94,

# Screening data as filed in PubChem BioAssay.
